Ba CapD inh: blocks the Bacillus anthracis CapD enzyme; purified CapD enzyme, fluorescence intensity read-out; hits give low values; some hits fall short of the stated cut; z-score (no concentration beside the values); hit rate 0.23% among 140,000; AID 492967;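 active means z-score under -4 in either of two replicates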;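 further: stock transfer was 100 nL into about 40 µL; score is relative to mean and spread of the plate; one replicate is shown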
AID504770: E. coli YBA685 growth inhibition, screen for V. cholerae RctB inhibitors; z-score (no concentration beside the values); hit rate 0.27% among 130,000; E. coli YBA685 rctB-dependent plasmid, OD600 growth, 3 h; hits give low values;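 active means z-score under -2 on both plates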;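 further: wells of about 30 µL received 100 nL stock; score is relative to mean and SD of the test wells; the first replicate is given; strong numbers were not always called active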
* = called active by the depositor; . = not tested or not shown.

SMILES | Ba CapD inh | AID504770
CCOC(=O)N1c2ccccc2C=CC1OCC (stereo not given) | . | 1.1
Nc1nnc(SCC(=O)N2CCCCC2)s1 | 0.24 | -0.05
Cc1ccc2c(c1)C1CN(C)CCC1N2C(=O)Nc1cccc(C(F)(F)F)c1 (stereo not given) | . | -0.65
O=S(=O)(CC(CN1CCCCC1)N1CCCCC1)c1ccccc1 (stereo not given) | -0.28 | -0.8
N#C/C(=N\Nc1ccccc1Oc1ccc(Cl)cc1Cl)C(=O)N1CCCC1 | 0.25 | .
CON(C)c1ncnc2scc(-c3ccc(C)cc3)c12 | . | -0.85
Oc1cc(O)c2ncccc2c1 | 6.5 | 0.1
Cn1c(C(F)(F)F)nn(CN2CC=C(c3ccccc3)CC2)c1=S | . | -1.9
COc1ccc(C(=O)NNC(=O)OCC2CC3CCC2C3)cc1 (stereo not given) | 0.51 | .
Cc1ccc2nc(/C(C#N)=C\C3CC4C=CC3C4)[nH]c2c1 (stereo not given) | 30 | 0.4
Cc1ccc(Cn2nnc3c(=O)n(Cc4cccc(C)c4)cnc32)cc1 | 1.3 | 0.4
NC(=O)CSc1ncccc1C(=O)O | . | -0.2
Cc1cccn2c(=O)c(/C=N/O)c(Nc3ccc(Cl)cc3)nc12 | . | -0.15
O=C1CCCC2=C1C(c1ccncc1)Nc1ccccc1N2 (stereo not given) | -1.7 | 1.1
Clc1ccccc1Cn1c(CSC2=NCCN2)nc2ccccc21 | -0.29 | -0.9
O=C(COc1ccc(Cl)cc1Cl)OCC1CCCN2CCCCC12 (stereo not given) | 0.05 | 0.25
O=C1CC(NNc2ccccc2)C(=O)N1 (stereo not given) | . | -0.25
COc1cc(S(=O)(=O)N2CCN(c3c(C)cc(C)cc3C)CC2)ccc1F | . | 0.15
Cc1c(Cc2c(Cl)cccc2Cl)c(=O)ccn1C(C)c1ccccc1 (stereo not given) | -0.57 | .
Cc1c(C(=O)Nc2ccccc2Cl)oc2c1C(O)CC(C)(C)C2 (stereo not given) | -0.15 | -0.6
O=C1NC(=S)N(c2ccc(Br)cc2)C(=O)/C1=C/c1cccn1-c1ccccc1 | -0.31 | .
N#CC(C#N)=C1CCc2ccccc21 | 0.005 | 0.85
O=C1CCC/C1=c1/s/c(=C/c2cccnc2)c(=O)n1-c1ccccc1 | 0.49 | 1.1
O=C(CCc1ccccc1)NCc1ccccn1 | -0.075 | -0.2

2 compounds picked at random from those above, as already listed:
SMILES | Ba CapD inh | AID504770
N#CC(C#N)=C1CCc2ccccc21 | 0.005 | 0.85
O=C1CCCC2=C1C(c1ccncc1)Nc1ccccc1N2 (stereo not given) | -1.7 | 1.1

Carrying on.
SMILES | Ba CapD inh | AID504770
COC(CNC(=O)C1CCN(S(=O)(=O)c2cccc3nsnc23)CC1)OC | 0.87 | 0.25
O=C(c1ccc(S(=O)(=O)N2CCOCC2)o1)N1CCOCC1 | -0.32 | 1.6
CCc1ccc(CN2CCN(C(=O)Cc3ccccc3)CC2)cc1 | -0.57 | -0.7
FC(F)(F)c1cc(Cl)c2nc(-c3n[nH]c(=S)o3)cn2c1 | -1.1 | 1.5
Cc1cc(C)cc(N=C2C(=O)N(Cc3ccccc3Cl)c3ccccc32)c1 | 0.26 | .
COc1ccc(-c2noc(CSCC(=O)O)n2)cc1OC | 0.04 | -0.55
CCCCC(=O)Nc1ccc(I)c(C)n1 | -0.01 | 0.1
CCOC(=O)c1[nH]c(C)cc1C | -0.65 | -0.7
Cn1c(O)c(N=NC(=O)CNC(=O)c2ccccc2)c2ccccc21 | . | 0.2
COc1ccccc1N1CCN(Cc2c(O)ccc3ccccc23)CC1 | 9.7 | -0.6
O=C(CSC1=NC(=O)C(c2ccccc2)C(=O)N1)NC1CCCCC1 (stereo not given) | 0.38 | -0.4
O=C(Cn1ncc2ccccc21)Nc1ccc(Cl)cn1 | -0.08 | -0.1
NC(=O)c1ccccc1Sc1ccccc1C(N)=O | -0.19 | -0.2
CC(=O)Nc1sc2c(c1CN1CCc3ccccc3C1)CCCC2 | -0.24 | 0.05
CC(C)CNC(=O)c1cc2sccc2n1Cc1ccccc1 | . | 1.1
O=C(CC1(O)C(=O)Nc2ccccc21)c1ccccc1O (stereo not given) | . | -1.2
CN(C)c1ccc(CCNC(=O)c2ccco2)cc1 | 0.22 | -0.3
CCOC(=O)C1C(=O)NC(N2CCOCC2)=NC1c1ccccc1 (stereo not given) | 0.57 | -0.7
O=C(Nc1ccccc1)Nc1ccccc1N1CCOCC1 | 0.7 | -0.4
Cc1ccc(C(=O)NNC(=O)c2ccco2)c(Cl)n1 | -0.96 | .
CCOc1ccccc1N/C(SCc1ccccc1C)=C(/C#N)C(=O)NCCc1ccc(OC)c(OC)c1 | 0.24 | .
CC1CCCCN1C(=O)COc1ncnc2sccc12 (stereo not given) | . | 0.05
Cc1sc2ncnc(Nc3ccc(F)cc3)c2c1C | 0.43 | 0.45
CC1=NN(c2ccc(C(=O)NC(CCC(=O)OC(C)(C)C)C(N)=O)cc2)C(=O)C1 (stereo not given) | -1.9 | .

Grouped by structure, the compounds so far containing a Cl atom (10)
SMILES | Ba CapD inh | AID504770
N#C/C(=N\Nc1ccccc1Oc1ccc(Cl)cc1Cl)C(=O)N1CCCC1 | 0.25 | .
Cc1cccn2c(=O)c(/C=N/O)c(Nc3ccc(Cl)cc3)nc12 | . | -0.15
Clc1ccccc1Cn1c(CSC2=NCCN2)nc2ccccc21 | -0.29 | -0.9
O=C(COc1ccc(Cl)cc1Cl)OCC1CCCN2CCCCC12 (stereo not given) | 0.05 | 0.25
Cc1c(Cc2c(Cl)cccc2Cl)c(=O)ccn1C(C)c1ccccc1 (stereo not given) | -0.57 | .
Cc1c(C(=O)Nc2ccccc2Cl)oc2c1C(O)CC(C)(C)C2 (stereo not given) | -0.15 | -0.6
FC(F)(F)c1cc(Cl)c2nc(-c3n[nH]c(=S)o3)cn2c1 | -1.1 | 1.5
Cc1cc(C)cc(N=C2C(=O)N(Cc3ccccc3Cl)c3ccccc32)c1 | 0.26 | .
O=C(Cn1ncc2ccccc21)Nc1ccc(Cl)cn1 | -0.08 | -0.1
Cc1ccc(C(=O)NNC(=O)c2ccco2)c(Cl)n1 | -0.96 | .

Further entries.
SMILES | Ba CapD inh | AID504770
c1ccc2c(-c3nnc(CN4CCOCC4)o3)cccc2c1 | 9.6 | 0.1
CCOC(=O)C1=NN(C(=O)COc2ccccc2)C(O)(c2ccc(Br)cc2)C1 (stereo not given) | . | -0.3
CCc1ccc(-c2cc(C)no2)cc1S(=O)(=O)N1CCN(C2CCCCC2)CC1 | -0.21 | -0.7
N#CC1=C(N)C(C#N)(C#N)C(c2cccc3ccccc23)C2CCCC=C12 (stereo not given) | -0.35 | .
Cc1cc(NC(=O)CN2C(=O)CCC2=O)no1 | . | 0.3
Cc1ccn2c(=O)c(NC(=O)c3ccccc3)cnc2c1 | 0.69 | 0.3
c1ccc(Oc2cnc3ccccc3n2)cc1 | -0.21 | -0.05
CC(C)(Oc1ccc(Cl)cc1)C(=O)Nc1ccc(Cl)cn1 | . | -0.15
COc1ccccc1N1CCN(C(=O)c2cnn3c2NC(c2ccc(Br)cc2)CC3C(F)(F)F)CC1 (stereo not given) | 0.27 | .
O=C(CCCN1C(=O)c2cccc3cccc(c23)C1=O)N1CCN(c2ccc(F)cc2)CC1 | 9.2 | .
O=C(O)c1ccc(NS(=O)(=O)c2ccc3c4c(cccc24)C(=O)N3)cc1 | -1.1 | 1.4
COc1ccc(N(Cc2cc3cccc4c3n(c2=O)CCC4)C(=O)NS(=O)(=O)c2ccc(C)cc2)cc1 | -0.23 | .
CCOc1cc(C(=S)N2CCCC2)ccc1OCc1ccccc1F | -0.72 | -1.1
O=C1/C(=C\c2cc(Br)c(O)c([N+](=O)[O-])c2)SC(=S)N1c1ccc([N+](=O)[O-])cc1 | -0.2 | .
O=C1CC(=O)c2ccc3c4c(ccc1c24)C(=O)CC3=O | -5.1* | -0.1
CCOC(=O)C1=C(C(=O)OCC)SC(=C2C(=S)C(C)(C)N(C(=O)c3ccc(C(C)(C)C)cc3)c3ccc(OC)cc32)S1 | 0.04 | .
O=C1/C(=N\OCc2cccc(Cl)c2)c2ccccc2N1c1ccccc1 | -0.62 | .
O=C(Cn1ncc2ccccc21)Nc1ccccc1Br | -0.16 | -0.15
COc1ccc(CN2CCC(C(=O)O)CC2)cc1 | . | -0.5
O=C(N/N=C/c1cccc(OCc2ccccc2)c1)c1ccc(OC(F)(F)F)cc1 | 0.29 | .
CCC(C)(C)c1ccc(S(=O)(=O)NC(C)C2CCCCC2)cc1 (stereo not given) | -1.1 | .
O=S(=O)(Cc1ccccc1)c1cnc2ccccc2n1 | 0.38 | -0.25
COc1ccc(N/C=C(\C#N)C(=O)N/C=N/OCc2ccc([N+](=O)[O-])cc2)cc1 | 1.7 | .
CCOC(=O)c1c(C)n(S(=O)(=O)c2ccc(OCC)cc2)c2ccc(NS(=O)(=O)c3ccc(OCC)cc3)cc12 | -0.35 | .
CN1c2ccccc2C(=O)NC1c1cc(Br)cs1 (stereo not given) | 32 | .
Cc1ccc(-n2ncc3c(=O)[nH]c(SCc4ccccc4F)nc32)cc1 | 0.23 | 0.3
CCCCNc1nc2ccccc2n1CC(N)=O | . | -0.95
Cc1nc2ccc(S(=O)(=O)NCC(=O)NC3CCC(C)CC3)cc2s1 (stereo not given) | 0.54 | 0
Cc1ccc(-c2nnc(N3CCCCC3)c3ccccc23)cc1C | 0.055 | -2.4
COc1ccc(CCn2c(-c3ccco3)nc3ccccc3c2=O)cc1OC | . | -0.4
O=C(c1ccc(N2C(=O)CCC2=O)cc1)N1CCc2ccccc2C1 | 0.15 | -0.5
N#Cc1ccccc1CSc1nc2ccccc2s1 | . | -0.65
COc1ccc(Cc2nnc(C(=O)N3CCN(c4ccccc4OC)CC3)o2)cc1OC | -0.19 | 1
COc1ccc(C(=O)NC2CCN(Cc3c(F)cccc3Cl)CC2)cc1OC | 1.1 | -0.65
O=S(=O)(c1ccccc1Cl)N1CCN(c2ncc(C(F)(F)F)cc2Cl)CC1 | 0.07 | .
CCSc1nnc2n(-c3ccccc3OC)c(=O)c3c(n12)-c1ccccc1CC31CCCCC1 | 0.88 | .
O=C(NCc1csc2ccccc12)OCC1CCCN(Cc2cc3c(cc2Cl)OCO3)C1 (stereo not given) | -0.43 | .
O=C(O)c1nn(-c2ccc(Cl)cc2Cl)c(=O)cc1O | 0.6 | -0.45
O=C1CC(=O)CC(c2ccco2)C1 | -0.4 | .
CC(=O)OCc1ccc(/C=C(\C#N)S(=O)(=O)c2cccs2)o1 | -1.7 | .
CC1CCC(C(=O)NC(C(=O)N2CCc3ccccc3C2)C(C)C)CC1 (stereo not given) | -0.77 | -0.05
COc1ccccc1NCC(=O)N/N=C1/CCCCC1C (stereo not given) | 0.41 | -0.9
CCc1ccc(C(=O)CN2C(=O)CN(C)C2=O)cc1 | . | -0.75
C/C(O)=C1\C(=O)NC2(C)CC1c1ccccc1O2 (stereo not given) | 0.38 | .
CCOC(=O)c1c(NC(=O)c2ccc(OC)cc2)sc(C(=O)Nc2cc(C(F)(F)F)ccc2Cl)c1C | 0.44 | .
Cc1cc2c(cc1S(=O)(=O)NC1CCCCCCC1)OCC(=O)N2 | -1.1 | -1.7
Cc1ccc(NC(=O)C(Cc2c[nH]c3ccccc23)NC(=O)Oc2ccccc2)cc1C (stereo not given) | 0.01 | .
CCc1nc2ccccc2c(C(=O)OCC(=O)Nc2ccc(S(=O)(=O)N3CCOCC3)cc2)c1C | . | -1.3
O=C(O)C1C2CC=CC2c2cc(Br)cc3c2N1CC1CC=CC31 (stereo not given) | -0.73 | -0.25
CC1(C)CC(=O)C(Sc2ccc(Br)cc2)=C(O)C1 | . | -0.35
C/C=C(/C)C(=O)O[C@@H]1[C@H](OC(C)=O)[C@@]2(CO)C(CC1(C)C)C1=CCC3[C@@]4(C)CC[C@H](O[C@@H]5O[C@H](C(=O)O)[C@@H](O[C@@H]6O[C@H](CO)[C@@H](O)[C@H](O)[C@H]6O)[C@H](O)[C@H]5O[C@@H]5O[C@H](CO)[C@@H](O)[C@H](O)[C@H]5O)[C@](C)(CO)C4CC[C@@]3(C)[C@]1(C)C[C@H]2O (stereo not given in full) | . | -0.15
COc1ccc(C2N3CC4(C)CN2CC(C)(C3)C4=O)cc1 (stereo not given) | 0.16 | .
COc1ccc(C2=NN3C(=O)c4c(ccc(OC)c4OC)C3C2)cc1 (stereo not given) | -1.1 | -0.2
NCc1cc(C2CC2)n[nH]1 | . | -0.45
CCOC(=O)c1ccc(NC(=O)CSc2nnc(NC(=O)c3c(F)cccc3F)s2)cc1 | -0.16 | .
COC(=O)C1=C(C)Nc2[nH]ncc2C1c1ccccc1 (stereo not given) | -0.4 | -0.8
O=C(O)C1C2C3C=CC(C3)C12 (stereo not given) | . | -0.7
CC1(C)C2CC[C@](C)(C2)C1NC(=O)C1CCCCC1 (stereo not given in full) | 0.86 | 0.55
O=C(O)c1cc(-c2ccccc2)c(C(F)(F)F)s1 | 0.3 | -0.7
Cn1c(O)c(C=Nc2cccc3ccccc23)c2ccccc21 | -0.08 | -0.25

The list continues.
SMILES | Ba CapD inh | AID504770
Clc1ccc(Cn2ncc3c(NCc4cccnc4)ncnc32)cc1 | 1.1 | 0.85
O=C(NCC1CCCO1)c1ccc2c(=O)n(Cc3ccco3)c(SCc3cc(=O)n4ccccc4n3)nc2c1 (stereo not given) | 3.3 | .
Cc1nc2ccc(F)cc2c2c1CCN2c1ccc(Cl)cc1 | 80 | -0.4
NC(=O)C1CCN(C(=O)c2ccc(C(F)(F)F)cc2)CC1 | 0.66 | -0.4
CCOc1ccc(NC(=O)N2CC(C)OC(C)C2)cc1 (stereo not given) | 0.08 | -0.2
